Bioassay records: PubChem, several laboratories
Bead autofluor = flagged as autofluorescent in microsphere protease counterscreen | 360,000 compounds, 3.1% hits | fluorescence intensity (no concentration beside the values) | compound autofluorescence counterscreen, microsphere flow cytometry; active compounds read high | AID 624483;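 active = at least 3 SD above the mean of all compounds, about 16000 in these data; inconclusive = too few beads counted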;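 note: 100 nL of 1 mM stock went into each well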
BJeLR viability = kills HRASV12-expressing BJeLR cells. BJeLR (HRASV12) viability, CellTiter-Glo ATP luminescence, 48 h; reference of the scale not given here. inhibition, % (test concentration not listed). 300,000 compounds, 0.17% hits. AID 1554;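 active = replicate mean above 50%; inconclusive = above 50% but judged a plate artefact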;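 note: 50 nL library stock added to about 25 µL; numbers are from one replicate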
Mtb hypoxia inh = Mtb hypoxia fluorescent reporter inhibition; 300,000 compounds, 0.1% hits; M. tuberculosis hypoxia-regulated fluorescent reporter, fluorescence; AID 1159583; fluorescence inhibition, % (test concentration not listed);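 active = 35 to 45% if threefold the growth effect, above 45% if 1.5-fold the growth effect; inactive = the rest, general growth blockers included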;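 note: wells of about 50 µL received 100 nL stock; 0% = vehicle wells and 100% = reference inhibitor wells; whole bacteria with a GFP reporter of the hypoxia response; strong numbers were not always called active; many hits fall short of the cut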
RN4220 kill = kills Staphylococcus aureus RN4220; 330,000 compounds, 0.33% hits; inhibition, % (concentration not given with the values); S. aureus RN4220 growth, OD600, 16 h; AID 1259311;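 active = z-score of -3 or lower and OD600 up to 0.18 on both plates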;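 note: plate controls were untreated cells for no effect and reference antibiotic for full effect; stock transfer was 100 nL into about 80 µL; one replicate is shown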
Sa ugtP lethal = compounds lethal to S. aureus RN4220 ugtP deletion mutant. OD600 growth, 16 h; some inactives read as strong as hits. growth inhibition, % (no concentration beside the values). 330,000 compounds, 0.54% hits;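 active = z-score under -3 and OD600 up to 0.15 on both plates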;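 note: plate controls were untreated wells for no effect and antibiotic for full effect; wells of about 80 µL received 100 nL stock; the first replicate is given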
PrP UTR inh = inhibition of PrP 5' UTR reporter expression; cell-based PrP 5' UTR mRNA reporter, plate reader; inhibition, % (no concentration beside the values); 340,000 compounds, 0.35% hits;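 active = every replicate at 50% or more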;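 note: 0 = median of the neutral control wells; tested in H4 reporter cells; numbers are from one replicate; inactives centre near -14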
Mtb hypoxia inh growth = second read-out of Mtb hypoxia inh, no call of its own (marks repeat the call); growth inhibition, %; measured here: M. tuberculosis growth (absorbance);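 0% = vehicle and 100% = reference antibiotic; read after six days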
The depositor's hits bear a star; u = inconclusive; x = not tested or not shown.

SMILES	Bead autofluor	BJeLR viability	Mtb hypoxia inh	Mtb hypoxia inh growth	RN4220 kill	Sa ugtP lethal	PrP UTR inh
CCO[C@H]1OC(C(=O)N2CCN(C)CC2)=C[C@@H](C)[C@@H]1CCCO	3894	-13	x	x	x	x	-16
COc1ccc(OCC(O)COc2ccc(OC)cc2)cc1	2494	2	x	x	1.2	2	-9
CC1(C)Cc2c(sc3nc4n(-c5ccccc5)c(=O)c(CCC(=O)O)nn4c(=O)c23)CO1	4526	18	12	2	2.3	8	-9
CN(C(=O)CCN1C(=O)C(C)(C)Nc2ccccc21)c1ccccc1	4477	x	x	x	-2.6	2	-24
Cc1ccccc1NC(=O)c1ccccc1N(C)S(=O)(=O)c1ccccc1	x	-1	5	4	3.5	10	-19
CCOC(=O)CC1Sc2ccccc2NC1=S (centres undefined)	6066	-1	x	x	x	x	-15
N#Cc1c(Nc2ccccc2)sc(C(=O)C2CC2)c1N	2545	-4	-16	-8	-0.3	-6	6
COc1cc(C=NNC(=O)c2cc(-c3cccs3)nc3ccccc23)ccc1O	x	x	9	7	1.6	6	x
COc1ccc(Nc2nc(N)c(C(=O)c3ccc(F)cc3)s2)cc1	3832	36	x	x	x	x	27
O=C(C1CC1)N1CCc2cc(Br)cc(S(=O)(=O)N3CCOCC3)c21	7878	x	3	5	1.4	-3	-18
COc1ccc(OC)c(S(=O)(=O)n2ccnc2C(C)C)c1	3545	-8	12	3	4.7	7	-3
CCOc1ccc(C(=O)CCC(=O)N2CCN(c3ccccc3O)CC2)cc1	u	x	4	-3	3.9	-13	0
O=C(COC(=O)c1ccccc1[N+](=O)[O-])NC(=O)c1ccccc1	6138	0	5	14	1.3	6	-16
CC1CN(C(=O)COC(=O)c2cc3ccccc3cc2O)CC(C)O1 (centres undefined)	3717	x	-4	-13	1.5	-6	-23
COc1cccc(CN(C)C(=O)c2cc(S(=O)(=O)N3CCCCCC3)ccc2OC)c1	2955	x	2	-3	3.7	10	5
CCOc1ccc(C(=O)NCC(=O)OCC(=O)N2C(C)CCCC2C)cc1 (centres undefined)	3160	4	x	x	2.8	9	-8
CCCOc1c(Cl)cc(C(=O)NC)cc1OC	3186	-1	x	x	x	x	-19
COc1cc(C(=O)Cc2nc3ccccc3n2C)cc(OC)c1OC	6136	-4	-6	3	-1.4	9	3
CCCCNC(=S)N(C)/N=C/c1ccc2c(c1)OCO2	1944	1	x	x	x	x	2
Cc1cc(OC(=O)c2ccc(C(C)(C)C)cc2)c([N+](=O)[O-])c(=O)[nH]1	5591	-6	1	-3	4.9	-6	-20
O=C(CCc1ccccc1)NCc1ccc(F)cc1	4473	-4	13	12	3.7	10	-8
CCCCc1nnc(NC(=O)C(C)Sc2nc(O)c(Cc3ccccc3)c(=O)[nH]2)s1 (centres undefined)	5286	2	0	2	-0.9	1	-19
CC(C)(O)C1=NOC(c2ccccc2)C1 (centres undefined)	16732*	-12	1	0	-1.5	0	-3
Cc1ccc(NC(=O)CC2SCCNC2=O)cc1[N+](=O)[O-] (centres undefined)	4504	9	17	8	2.0	2	-25
NC(=N[N+](=O)[O-])N1CCN(C(=O)c2ccc(Cl)cc2)CC1	x	x	4	5	4.2	4	x

Record cards (already shown):
`COc1ccc(OCC(O)COc2ccc(OC)cc2)cc1` is entered as Bead autofluor = 2494; BJeLR viability = 2; Mtb hypoxia inh = x; Mtb hypoxia inh growth = x; RN4220 kill = 1.2; Sa ugtP lethal = 2; PrP UTR inh = -9
`O=C(CCc1ccccc1)NCc1ccc(F)cc1` is entered as Bead autofluor = 4473; BJeLR viability = -4; Mtb hypoxia inh = 13; Mtb hypoxia inh growth = 12; RN4220 kill = 3.7; Sa ugtP lethal = 10; PrP UTR inh = -8

Further records follow.
SMILES	Bead autofluor	BJeLR viability	Mtb hypoxia inh	Mtb hypoxia inh growth	RN4220 kill	Sa ugtP lethal	PrP UTR inh
COC(=O)C1=C(C)NC(=O)CC1c1ccccc1F (centres undefined)	10772	-12	0	-9	4.5	0	-3
CCOc1ccc(N(C)C(=O)CCc2nnc3ccc(N4CCCC4)nn23)cc1	4267	2	-3	8	1.1	2	-6
COc1ccc(-c2[nH]ncc2C2N=C(N)Nc3nc4ccccc4n32)cc1 (centres undefined)	4571	7	9	0	3.9	1	-9
CCOC(=O)c1ccc(NC(=S)N(CCN(C)C)Cc2cccs2)cc1	4343	18	11	14	4.4	2	6
O=[N+]([O-])c1ccccc1C=NN1CCN(Cc2ccccc2)CC1	x	x	12	6	0.8	14	x
COC(=O)c1cccc(NC2CC(=O)N(c3ccc(OC)c(OC)c3)C2=O)c1 (centres undefined)	3107	-8	10	1	1.9	6	-19
Nc1ccccc1SC1CC(=O)N(c2ccc3c(c2)OCO3)C1=O (centres undefined)	3803	-8	15	6	4.8	6	-31
O=C(COc1ccc(Cl)cc1)N1CCN(C(=O)c2ccccc2F)CC1	6560	4	-15	-2	0.7	3	-14
COc1ccc2nc(C)cc(SCC(=O)NNC(=O)COc3ccc(C)cc3)c2c1	8511	-5	13	5	2.9	-6	-35
O=C(Nc1ccc(Cl)c(S(=O)(=O)N2CCOCC2)c1)c1ccncc1	3069	x	11	2	2.7	-11	-2
COC(=O)c1cccc(NC(=S)N2CCN(c3ccccc3F)CC2)c1	2973	3	6	9	-1.5	-2	-24
O=C1CCC/C1=C\Nc1ccc(Cl)c([N+](=O)[O-])c1	5475	2	18	-1	5.2	8	-33
Cc1ccccc1/C=N/NC(=O)CSc1nc2ccccc2o1	2403	2	x	x	x	x	-62
Cc1noc(C)c1NC(=O)N(C)C[C@H]1Oc2ccc(NS(=O)(=O)c3ccccc3)cc2C(=O)N([C@H](C)CO)C[C@@H]1C	3731	x	5	9	-11	-1	-14
Cc1cccc(C#N)c1	5697	x	0	1	3.1	4	-10
CC(NC(=O)[C@H](C)NC(=O)N1CCn2c1nc1ccccc12)c1ccccc1 (some centres undefined)	6248	-1	0	8	2.5	3	-5
Cc1ccn(CCC(=O)N2CCCC(CCC(=O)N3CCN(c4ccccn4)CC3)C2)n1 (centres undefined)	4420	-9	1	-3	4.3	5	-18
COc1cccc(C(C(=O)NC2CCCC2)N(C(=O)c2csnn2)C2CC2)c1 (centres undefined)	4363	-15	12	4	3.4	11	-11
C=CCn1c(C(CC)CC(C)(C)O)n[nH]c1=S (centres undefined)	3340	0	13	9	0.7	4	0
N#Cc1ccc(C(=O)OCC(=O)NC(=O)NCc2ccccc2)cc1	u	x	4	5	3.7	0	-16
Cc1cccc(NC(=S)NC(=O)c2cccs2)n1	11076	-6	5	-4	4.6	-25	-44
COc1ccccc1C(=O)NC(=S)Nc1cccnc1Cl	5443	4	-6	4	0.1	-5	-12
COc1ccccc1C(=O)NCCn1ccc2ccccc21	9297	-5	x	x	0.9	-5	-8
O=C1c2ccccc2NC(c2ccccc2)N1c1ccc(O)cc1 (centres undefined)	10700	4	4	7	-0.2	3	-11
O=C(c1cc(-c2cccs2)nc2ccccc12)N1CCN(c2ccccc2)CC1	2181	4	4	5	0.2	-15	-22

The list continues.
SMILES	Bead autofluor	BJeLR viability	Mtb hypoxia inh	Mtb hypoxia inh growth	RN4220 kill	Sa ugtP lethal	PrP UTR inh
O=C(/C=C/c1ccc([N+](=O)[O-])cc1)NCCSc1ccccc1	23722*	-5	6	9	-1.4	20	-15
Nc1nc(CCl)nc(Nc2ccccc2)n1	4074	-4	24	33	13	12	-20
CCC(C)[C@H](NC(=O)N1CCN(c2cccc(C(F)(F)F)c2)CC1)C(=O)OC (some centres undefined)	11486	-2	12	4	-5.3	16	-29
CCOC(=O)NNC(=O)C12CC3CC(CC(C3)C1)C2	3297	-23	2	4	0.3	2	-6
COc1cc(OC)cc(C(=O)NCCOc2ccccc2)c1	2405	-1	x	x	0.7	2	-47
CC1CN(C(=S)SCCN2C(=O)CCC2=O)CC(C)O1 (centres undefined)	3388	7	2	8	1.8	0	-93
COc1ccccc1NC(=S)N1CCCc2ccccc21	4660	-11	3	7	9.5	7	-19
N/C(=N\OC(=O)CN1C(=O)c2ccccc2C1=O)c1ccc(Br)cc1	3842	1	4	9	4.4	-2	-11
CCCCn1c(N)c(N(CC)C(=O)CCc2ccccc2)c(=O)[nH]c1=O	1972	-16	8	1	4.9	2	-21
O=C(Nc1ccc(NC(=O)c2cc3ccccc3o2)cc1)c1ccco1	5502	3	-6	3	3.8	-14	-10
FC(F)(F)c1ccccc1NC(=S)Nn1cnnc1	6011	x	1	9	-2.1	-1	5
CCn1ncc(/C=C/C(=O)Nc2c(C)nn(CC)c2C)c1C	20272*	-7	11	6	4.9	-8	-39
CC(=O)c1cccc(NC(=O)CSc2nnc(-c3ccc(S(=O)(=O)N4CCCC4)cc3)o2)c1	21749*	5	-1	10	-2.7	-5	1
CCOc1ccc(CNC(=O)CN2C(=O)CSc3ccc(S(=O)(=O)N4CCOCC4)cc32)cc1OC	6371	-4	3	1	4.3	0	-27
COc1ccc(C(CNC(=O)c2cccc3cccnc23)N(C)C)cc1 (centres undefined)	6168	8	4	1	4.9	9	-7
CCOC(=O)c1c(NC(=O)C2CC(Cl)=CCC2C(=O)O)sc2c1CCCCC2 (centres undefined)	5690	4	3	-5	13	-23	0
O=C(/C=C/c1ccco1)Oc1cc(Br)cc(/C=N/NC(=O)c2ccccc2O)c1	7179	27	x	x	x	x	31
COc1ccc(/C=C2\SC(=O)N(CCC(=O)N(C)C3CCS(=O)(=O)C3)C2=O)cc1 (centres undefined)	6039	0	-2	-4	4.7	-1	-13
O=S1(=O)NC(CC2=CCCCC2)C2CCCCC2O1 (centres undefined)	3998	6	4	1	5.5	-1	1
CC1CN(c2ccccc2)C(=O)CS1 (centres undefined)	4030	-2	3	12	6.3	2	-23
O=C(O)c1ccccc1S(=O)(=O)CC(=O)N1CCCCC1	3458	-11	7	11	3.5	0	-23
CN(C(=O)CSc1nnc(C2CC2)n1C)C1CCCc2ccccc21 (centres undefined)	6236	x	3	-2	0.5	-1	-32
O=C(CC1(O)C(=O)N(Cc2ccccc2Cl)c2ccccc21)c1ccco1 (centres undefined)	3815	-2	16	10	3.5	-8	-12
CNS(=O)(=O)c1cccc(C(=O)NCC(C)(C)N2CCCCC2)c1	3754	0	1	-2	3.0	-3	-16
CCN(C(=O)COC(=O)c1cc(S(=O)(=O)N2CCOCC2)c(Cl)cc1Cl)C1CCS(=O)(=O)C1 (centres undefined)	3246	1	-1	0	4.1	8	-28

(more compounds)
SMILES	Bead autofluor	BJeLR viability	Mtb hypoxia inh	Mtb hypoxia inh growth	RN4220 kill	Sa ugtP lethal	PrP UTR inh
CC1CCN(S(=O)(=O)c2cc(C(=O)Nc3ccccn3)ccc2Br)CC1	x	14	10	2	5.3	-14	-17
Cc1cc(-c2nnc(CCC(=O)N(C)CCc3ccccc3)o2)no1	3578	-5	-6	-2	4.5	3	3
COc1cc(CNCCNC(=O)c2nonc2N)ccc1OCc1ccc(Cl)cc1	4416	5	16	17	3.9	-1	-7
COc1ccccc1OC(=O)c1ccc(SC)cc1OC	3414	3	x	x	0.8	14	-19
CCOc1ccccc1NS(=O)(=O)c1c[nH]c(C(=O)OC)c1	4293	-2	9	2	1.6	9	8
O=C(CSc1n[nH]c(=O)[nH]c1=O)NN=Cc1ccccc1O	x	x	14	5	5.0	6	x
CN(Cc1cn(-c2ccccc2)nc1-c1ccc(Cl)cc1)C(=O)CCC(=O)O	1941	-3	2	4	4.0	-4	-16
O=C(C[n+]1ccccc1)NN=Cc1c(F)cccc1Cl	x	x	11	-4	20	-3	x
CCCCC(=O)OCC(=O)c1[nH]c(C)c(C(C)=O)c1C	4470	-3	13	4	4.5	11	-12
CC(=NNC(=O)c1c[nH]c2ccccc12)c1ccc(C)s1	x	x	9	1	-1.9	5	x
Cc1cccc(CN2C(=O)NC(=Cc3cc(C)n(-c4ccccn4)c3C)C2=O)c1	x	x	-7	7	2.2	7	x

Part of the list above, with each value named.
Cc1cc(-c2nnc(CCC(=O)N(C)CCc3ccccc3)o2)no1
  Bead autofluor = 3578
  BJeLR viability = -5
  Mtb hypoxia inh = -6
  Mtb hypoxia inh growth = -2
  RN4220 kill = 4.5
  Sa ugtP lethal = 3
  PrP UTR inh = 3
CN(Cc1cn(-c2ccccc2)nc1-c1ccc(Cl)cc1)C(=O)CCC(=O)O
  Bead autofluor = 1941
  BJeLR viability = -3
  Mtb hypoxia inh = 2
  Mtb hypoxia inh growth = 4
  RN4220 kill = 4.0
  Sa ugtP lethal = -4
  PrP UTR inh = -16

This is a random part of the collection (roughly 4% active in at least one column).
